Screens from PubChem BioAssay.
KCNQ2 block: KCNQ2 potassium channel inhibitors, primary screen, cell-based, CHO-K1, FluxOR thallium flux, B-score (AID 2156). 310,000 tested, 1.1% active. 20 min; hits give low values; only compounds with negative scores are shown here; some inactives read as strong as hits. B-score at 10 µM. O88943;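 active = fluorescence ratio B-score at most minus 3 library SDs, with starting brightness B-score within 2 library SDs, cut at about -5.5 in these data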
Target sequence (O88943 whole entry, looked up): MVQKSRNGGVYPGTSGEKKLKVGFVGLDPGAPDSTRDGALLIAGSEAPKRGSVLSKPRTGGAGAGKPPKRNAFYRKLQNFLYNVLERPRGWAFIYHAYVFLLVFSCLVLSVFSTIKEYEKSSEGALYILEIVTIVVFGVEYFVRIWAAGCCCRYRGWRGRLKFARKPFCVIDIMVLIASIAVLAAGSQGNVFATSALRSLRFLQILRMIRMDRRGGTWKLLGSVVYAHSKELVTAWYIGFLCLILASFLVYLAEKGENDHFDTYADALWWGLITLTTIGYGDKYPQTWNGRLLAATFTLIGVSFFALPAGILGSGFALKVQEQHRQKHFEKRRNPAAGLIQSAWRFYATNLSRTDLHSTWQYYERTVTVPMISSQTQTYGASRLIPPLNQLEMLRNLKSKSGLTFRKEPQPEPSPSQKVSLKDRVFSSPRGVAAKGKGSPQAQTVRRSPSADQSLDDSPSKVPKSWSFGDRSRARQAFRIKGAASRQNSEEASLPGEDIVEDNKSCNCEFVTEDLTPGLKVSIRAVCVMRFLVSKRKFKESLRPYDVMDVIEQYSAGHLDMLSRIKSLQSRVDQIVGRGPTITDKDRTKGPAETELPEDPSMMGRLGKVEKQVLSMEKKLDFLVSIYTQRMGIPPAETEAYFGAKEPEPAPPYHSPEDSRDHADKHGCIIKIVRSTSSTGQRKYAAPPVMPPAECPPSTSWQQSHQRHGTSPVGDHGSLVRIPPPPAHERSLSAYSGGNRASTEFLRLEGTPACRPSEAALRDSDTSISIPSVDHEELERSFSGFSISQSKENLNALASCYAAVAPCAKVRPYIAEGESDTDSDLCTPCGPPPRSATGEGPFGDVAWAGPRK
KCNQ2 block baseline: also measured in KCNQ2 block; calls as there; B-score; measured here: initial fluorescence intensity artifact check;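 brightness before thallium and not channel activity; 0 = typical well and far values either way flag optical interference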
The depositor's hits bear a star; i = inactive; & = joins results of further samples. The list is partial (hit frequency here may not be typical).

structure	KCNQ2 block	KCNQ2 block baseline
O=C(CSc1nnc2ccccn12)Nc1cccc(S(=O)(=O)N2CCOCC2)c1	i	-0.14
Cc1ccc(N(C)C(=O)CCNC(=O)Cn2cnc3ccccc3c2=O)cc1C	i	-1.2
O=C1NCC(O)=C1C=NCCCO	i	1.6
Cc1cc(NC(=O)CCC(=O)N(Cc2ccco2)C2(C(=O)NC3CCCCC3)CCCC(C)C2)no1 (stereo unspecified)	i	-0.24
Cc1[nH]c2ccc(C(=O)N3CCN(Cc4ccccc4)CC3)cc2c1C	i	-0.23
COc1ccc(CNS(=O)(=O)c2ccc(S(=O)(=O)NC3CC3)cc2)cc1	i	1.3
COc1c(C)cc(C(=O)C2CCCN(C(=O)CCc3scnc3C)C2)cc1C (stereo unspecified)	i	0.66
CCOC(=O)N1CCN(C(=O)CSc2nnc(-c3ccc(C)c(C)c3)o2)CC1	i	3
O=C(NCc1cccc(Cl)c1)c1ccc(CS(=O)Cc2ccc(Cl)cc2)o1 (stereo unspecified)	i	0.69
COc1ccccc1NC(=O)CN1C(=O)COc2ccc(S(=O)(=O)N3CCOCC3)cc21	i	-0.16
NC(=O)NC(=O)CN1C(=O)NC(c2ccccc2)(c2ccccc2)C1=O	i	-0.94
O=C(CNC(=O)c1ccco1)NCC(=O)OCc1cccc(Cl)c1	i	0.44

Next section.
structure	KCNQ2 block	KCNQ2 block baseline
Cc1ccc(CN2CCSc3ccc(C(=O)NCc4cccnc4)cc32)cc1	i	0.47
CCc1cccc(CC)c1NC(=S)N1CCn2cccc2C1c1cccnc1 (stereo unspecified)	i	0.48
Cc1cc(=O)[nH]c(N/N=C/c2ccc([N+](=O)[O-])cc2)n1	i	2.3
Cc1ccc(S(=O)(=O)N2CCCOC2CNC(=O)C(=O)NCc2ccco2)cc1 (stereo unspecified)	i	0.4
CC(=O)N1CCc2ccc(S(=O)(=O)N3CCc4ccccc43)cc21	i	-0.02
CCc1cc(Cn2nc(-c3ccccc3)cc2C(=O)NCC2CC2)on1	i	0.8
Cc1ccc(C(=O)CSc2nnc3ccccn23)c(C)c1	i	-0.02
CCOC(=O)Cc1csc(SCC(=O)Nc2cc(C)ccc2OC)n1	i	-0.76
O=C(NCCCN1CCOCC1)c1onc(CSc2ccccc2)c1C(=O)NCCCN1CCOCC1	i	0.06
COCCN(C(=O)Cc1cccs1)C(C(=O)NCc1ccc(OC)cc1)c1ccc(OC)cc1 (stereo unspecified)	i	-1.1
COc1ccc(NC(=O)CSc2nnc(NC(=O)C3CCC3)s2)cc1	i	2.4
OCCN(Cc1nc(-c2ccc3c(c2)OCO3)no1)Cc1cccs1	i	-0.05

Pulled one by one from the entries so far, 4 records:
structure	KCNQ2 block	KCNQ2 block baseline
Cc1ccc(C(=O)CSc2nnc3ccccn23)c(C)c1	i	-0.02
CCc1cccc(CC)c1NC(=S)N1CCn2cccc2C1c1cccnc1 (stereo unspecified)	i	0.48
Cc1cc(=O)[nH]c(N/N=C/c2ccc([N+](=O)[O-])cc2)n1	i	2.3
CCOC(=O)Cc1csc(SCC(=O)Nc2cc(C)ccc2OC)n1	i	-0.76

Going on with the list.
structure	KCNQ2 block	KCNQ2 block baseline
COc1cccc(/C=C(/C(=O)OCC(=O)NC2CCCC(C)C2C)c2ccccc2)c1 (stereo unspecified)	i	-0.01
Cc1ccc(N2C(=O)N3[C@H]4c5ccccc5OC[C@@H]4[C@@H](c4ccccc4)[C@@]3(C)C2=O)cc1	i	0.73
CN(C(=O)CSc1nnc(-c2ccncc2)n1C)C1CCS(=O)(=O)C1 (stereo unspecified)	i	-0.32
NS(=O)(=O)c1ccc(NC(=O)CSc2ccc3ccccc3n2)cc1	i	0.89
CC(C)(C)OC(=O)N1CCC(CC2CC(c3cccc(Br)c3)=NO2)(C(=O)NCC2CCCCC2)CC1 (stereo unspecified)	-8.1*	-0.04*
C[C@@H]1O[C@@H](OC2C(O)C(OCCc3ccc(O)c(O)c3)OC(CO)C2OC(=O)/C=C/c2ccc(O)c(O)c2)[C@H](O)[C@H](O)[C@H]1O (stereo partly specified)	i	-0.09
COc1ccccc1C#Cc1ccc2c(=O)c3ccccc3n(C)c2c1	i	-0.68
CCOC(=O)c1c(C)n(-c2ccccc2)c2ccc(OCCN(C)C)cc12	i	-2.2
CC(Oc1cccc(Cl)c1)C(=O)Nc1cc(=O)n(C)c(=O)n1C (stereo unspecified)	i	-0.01
Nc1nnc(-c2ccc(Cl)c([N+](=O)[O-])c2)s1	i	-1.8
Cc1cc2nc3ccc(N(C)C)cc3nc2cc1N	i	1.8
CCN1CCN(C(=O)c2ccc3c(c2)N(Cc2ccccc2)C(=O)c2ccccc2S3=O)CC1 (stereo unspecified)	i	-0.8

Remaining list, next part:
structure	KCNQ2 block	KCNQ2 block baseline
CCOc1cccc(C2NC(=S)NC(C)=C2C(=O)Nc2ccccc2)c1 (stereo unspecified)	i	2.7
S=C(NCC1COc2ccccc2O1)Nc1ccccc1 (stereo unspecified)	i	-1.3
COc1cc(/C=N/NC(=O)c2ccc(CSc3nc4ccccc4[nH]3)cc2)cc(OC)c1OC	i	0.6
CCc1ccc2oc(C(=O)N3CCN(c4ccccc4OC)CC3)cc(=O)c2c1	i	0.34
COc1cccc(-c2nc(NCc3ccccc3)c3ccccc3n2)c1O	i	-0.52
C/C(=N\N1CCN(C2c3ccccc3-c3ccccc32)CC1)c1ccncc1	i	0.02
Cn1cc(/C=C2\SC(=O)N(c3ccccc3)C2=O)c2ccccc21	i	1.9
Cc1cc(C)nc(NS(=O)(=O)c2ccc(NC(=O)c3cc(-c4ccccc4)nc4ccccc34)cc2)n1	i	0.1
CCOC(=O)c1cc(CC)sc1NC(=O)C1CC(=O)NN1Cc1ccccc1 (stereo unspecified)	i	0.73
COC(=O)c1ccc(CS(=O)(=O)c2ccc(F)cc2)o1	i	-0.58
COc1ccccc1NC(=O)C(=O)NCCC1CCCCN1S(=O)(=O)c1ccc(F)cc1 (stereo unspecified)	i	2
Cc1cccc(C)c1NS(=O)(=O)c1ccc(-c2cnc(C3CC3)o2)cc1	i	-1.1

(listing goes on)
structure	KCNQ2 block	KCNQ2 block baseline
Cc1noc(C(=O)Nc2cccnc2Cl)c1Cl	i	0.06
COc1ccc(NC(=O)C2CC(=O)OC2c2ccccc2)cc1 (stereo unspecified)	i	1.9
Cc1ccc(C)c(-n2c(-c3ccc4c(c3)OCO4)n[nH]c2=S)c1	i	-0.83
COc1ccc(N2CC(C(=O)N/N=C/c3cc([N+](=O)[O-])ccc3O)CC2=O)cc1 (stereo unspecified)	i	-1.5
Cc1ccc(-c2nc3ncccn3c2Nc2ccc3c(c2)OCO3)o1	i	-1.1
COc1ccccc1NC(=O)C1CC(O)CN1C(=O)Oc1ccccc1 (stereo unspecified)	i	2.5
CCC(=O)NCc1nc2ccccc2n1Cc1ccccc1F	i	-0.9
COc1ccc(C(O)c2nccc3cc(OC)c(OC)cc23)cc1OC (stereo unspecified)	i	1
COC(=O)CC1C(=O)NCCN1C(=O)c1c(F)cccc1F (stereo unspecified)	i	0.13
CCOC(=O)C1(C)NC(c2cccs2)C2C(=O)N(c3ccccc3)C(=O)C21 (stereo unspecified)	i	0.25
O=C1C2C3C=CC(C3)C2C(=O)N1c1ccccc1OS(=O)(=O)c1ccccc1 (stereo unspecified)	i	0.42
N#CCC(=N)N1CCN(c2ccccc2Cl)CC1	i	-1.9

Next compounds follow:
structure	KCNQ2 block	KCNQ2 block baseline
Nc1nc(-c2ccc(F)cc2)cc(C(F)(F)F)n1	i	-0.18
Cn1c(CNc2cccc(Cl)c2)nnc1SCC(=O)OC1CCCCC1	i	0.46
COCCCNC(=O)c1ccc2c(=O)n(Cc3ccc4c(c3)OCO4)c(=S)[nH]c2c1	i	-0.69
COc1cc(/C=N/NC(=O)C2CC(=O)N(c3ccc(C)cc3)C2)cc(OC)c1OC (stereo unspecified)	i	0.3
CC(C)(C)OC(=O)C(C)(C)Sc1nnc(N)s1	i	-0.13
CCc1ccc(NC(=O)CN2C(=O)CSC2=O)cc1	i	-0.59
CC1CCCCN1S(=O)(=O)c1ccc(C(=O)Nc2ccccc2-c2nc3ccccc3s2)cc1 (stereo unspecified)	i	0.35
Cc1noc(C)c1CSCC(=O)N1CCN(c2ccc([N+](=O)[O-])cc2)CC1	i	-0.05
Cc1c(NC(=O)COC(=O)Cc2ccc(Cl)cc2)c(=O)n(-c2ccccc2)n1C	i	2
Clc1ccccc1C1SCC2Nc3ccccc3CN21 (stereo unspecified)	i	-0.73
Cc1cccc(N(C(=O)Cn2nnc3ccccc32)C(C(=O)NCc2ccco2)c2ccncc2)c1C (stereo unspecified)	i	0.11
COCCCN(C(=S)NC(=O)c1ccc(C(C)(C)C)cc1)c1c(N)n(Cc2ccccc2)c(=O)[nH]c1=O	i	-0.74

Other entries:
structure	KCNQ2 block	KCNQ2 block baseline
C=CCn1c(C)cc(C(=O)COC(=O)/C=C/c2ccc(OC)cc2)c1C	i	2.6
O=C(Nc1ccc(Cl)cc1)Nc1ccccc1Sc1ncc([N+](=O)[O-])s1	i	0.69
CCN(CC)c1ccc(C(=O)N/N=C/c2ccc(OC)cc2OC)cc1	i	-3.2
Cc1ccc(C(=O)CCS(=O)(=O)c2ccc(Br)cc2)cc1	i	1.8
COc1ccc(CNC(=O)C[C@H]2C(=O)N(c3ccccc3)C[C@@H]2Cc2ccccc2)cc1	i	-1.9
COc1cc(C(=O)OC(C)CN2CCOCC2)cc(OC)c1OC (stereo unspecified)	i	0.61&1.4
c1ccc(-c2ccc(-c3nc(-c4ccccn4)no3)cc2)cc1	i	1.7
COc1ccc(OCc2nc3c4c(ncn3n2)-c2ccccc2CC42CCCC2)cc1	i	0.07
Cc1cc(C)c2cc(C#N)c(N3CCCN(C(=S)NCCCN(C)C)CC3)nc2c1	i	-3.3
Cc1ccc(CNc2oc(-c3ccco3)nc2S(=O)(=O)c2ccccc2)cc1	i	0.38
CN1/C(=C\C=Nc2cc(S(=O)(=O)N3CCOCC3)ccc2N2CCOCC2)C(C)(C)c2ccccc21	i	1.9
O=C(CNS(=O)(=O)c1cccs1)N1CCCC1	i	-1.3

More structures follow.
structure	KCNQ2 block	KCNQ2 block baseline
CCOc1ccc(C2CC(c3ccccc3)Nc3nc(N)nn32)cc1 (stereo unspecified)	i	-0.84
CCCCNCc1cc(Br)c(OCc2cccs2)c(OC)c1	i	-0.77
CCOC(=O)c1sc2ncn(C(CC)C(=O)OC)c(=O)c2c1C (stereo unspecified)	i	0.37
COC(=O)[C@@]1(Cc2ccccc2)C=C[C@@H](C)N1C(C)=O	i	0.2
O=C(NCc1cccnc1)NC(C(F)(F)F)C(F)(F)F	i	-1.1
Cc1cccc(NC(=O)CN(c2ccc(F)cc2)S(C)(=O)=O)c1	i	0.37
CC(C)(C)N(Cc1ccccc1)C(=O)CN1C(=O)c2ccccc2C1=O	i	0.29
CC(=O)N1CCN(c2ccccc2NC(=O)COc2cc(C)ccc2C(C)C)CC1	-7.8*	0.78*
COCc1cc(C)n(CC(=O)Nc2ccc(N3CCOCC3)cc2)c(=O)c1C#N	i	0.2
COc1ccc(N2CC(C(=O)OCC(=O)c3ccccc3)CC2=O)cc1 (stereo unspecified)	i	1.9
Cn1nc2sc3ccccc3n2c(=O)c1=O	i	-1.9
CC(C)COc1ccc(C(=O)Nc2ncn[nH]2)cc1	i	0.22

Carrying on:
structure	KCNQ2 block	KCNQ2 block baseline
CCCn1nnc(NC(=O)c2ccc(Br)cc2)n1	i	-1.5
Cc1cc(SCC(=O)NC(=O)c2cccn2C)nc2ccccc12	i	0.9
CC1(C(=O)NNC(=O)c2cccc([N+](=O)[O-])c2)CC1(Br)Br (stereo unspecified)	i	2.8
CC(=O)Nc1cccc2c1C(=O)N(c1ccc(C)cc1)C2=O	i	1.6
COC(=O)/C(=C(/F)Sc1cc(C)c(O)c(C)c1)C(F)(F)F	i	-0.02
CCOc1ccccc1CNC(=O)CCC(=O)N1Cc2ccccc2Oc2ncccc21	i	-0.83
CCN(CC)CC#CCC1(O)c2ccccc2-c2ccccc21	i	0.37
CCNc1nc(NC(C)(C)C)nc(Oc2ccc(=O)n(-c3ccccc3)n2)n1	i	0.62
O=C(OCCCCOC(=O)c1ccccc1)c1ccccc1	i	0.01
c1cc2c(cnc3cscc32)s1	i	1
COc1ccc2oc(C(=O)Nc3ccccc3N3CCOCC3)c(C)c2c1	i	0.55
O=C(Nc1ccccc1N1CCOCC1)c1csc2c1CCCC2	i	-0.09
CCC1(C)Cc2ccccc2-c2c1c(=O)n(-c1ccc(C)cc1)c1nnnn21 (stereo unspecified)	i	-0.9
O=C(/C=C/c1ccc(S(=O)(=O)N2CCOCC2)cc1)NCc1ccccc1Cl	i	3.1

Part of the list above, with each value named:
c1cc2c(cnc3cscc32)s1
  KCNQ2 block: i
  KCNQ2 block baseline: 1

COc1ccc2oc(C(=O)Nc3ccccc3N3CCOCC3)c(C)c2c1
  KCNQ2 block: i
  KCNQ2 block baseline: 0.55

O=C(Nc1ccccc1N1CCOCC1)c1csc2c1CCCC2
  KCNQ2 block: i
  KCNQ2 block baseline: -0.09
